VDR inh: blocks the human vitamin D receptor | Potency, µM, for inactives: max response, negative = inhibition, actives largely listed as inhibitors | P11473 | VDR-SRC2-3 peptide fluorescence polarization, 2 h | AID 504847 | 400,000 tested, 0.93% active; active means well fitted inhibition curve with a large enough effect; inconclusive means small, poorly fitted or top-dose-only effect, or another doubt; inactive means no such curve, though single readings can be large or run the other way; further: series mostly up to about 120 µM
Target sequence (P11473 whole entry, looked up): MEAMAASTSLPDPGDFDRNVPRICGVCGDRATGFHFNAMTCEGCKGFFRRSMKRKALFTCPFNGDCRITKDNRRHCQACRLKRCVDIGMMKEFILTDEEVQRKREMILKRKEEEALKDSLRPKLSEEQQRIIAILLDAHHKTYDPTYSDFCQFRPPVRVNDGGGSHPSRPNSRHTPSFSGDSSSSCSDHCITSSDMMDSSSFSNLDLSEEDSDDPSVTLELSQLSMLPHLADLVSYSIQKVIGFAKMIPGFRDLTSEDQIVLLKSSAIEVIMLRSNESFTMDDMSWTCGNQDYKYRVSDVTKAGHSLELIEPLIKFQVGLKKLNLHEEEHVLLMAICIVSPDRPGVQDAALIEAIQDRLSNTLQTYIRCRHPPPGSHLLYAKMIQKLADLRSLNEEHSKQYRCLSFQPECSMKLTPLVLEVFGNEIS
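Inhibition of the VDR/SRC2-3 peptide interaction is quantified by fluorescence polarization. Compounds (23 nl, pintool) incubate with the reagents for 2 hours at ambient room temperature.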
Active calls of the source: *; u = inconclusive; [ ] = remark or other dose. On the % scale 0 is the no-effect control and ±100 the full control effect; potency means the concentration at half of the fitted maximal effect. These rows are one share of the data; the hit share may differ from the screen's.

| canonical_smiles | VDR inh |
| --- | --- |
| CN(C)c1oc(-c2ccccc2)nc1C#N | -2% |
| CCc1ccc(NC(=O)C(=S)NC2CCCCC2)cc1 | -7% |
| CN(C(=O)COC(=O)c1cc(-c2ccco2)nc2ccccc12)C1CCS(=O)(=O)C1 (stereo not drawn) | -10% |
| COc1ccc(OC)c(/C=N/NC(=O)c2ccc(N(C)S(=O)(=O)c3ccccc3)cc2)c1 | -5% |
| CCCN=C1CC(C)(C)CC(=O)/C1=C(/O)CCC | 5% |
| CC(=O)c1cc(F)c(N2CCN(C(=O)Cc3ccccc3)CC2)cc1C | -1% |
| C=C(C)Cc1c(C)c(C#N)c2nc3ccccc3n2c1NCCCN(C)C | -12% |
| Cc1cc(C)cc(NC(=O)CSc2nc3ncccc3[nH]2)c1 | 5% |
| Cc1ccc(NC(=O)CCNC(=O)c2ccc([N+](=O)[O-])cc2)cc1C | 15% |
| O=C(Nc1ccc(C(=O)N2CCOCC2)cc1)c1cc(-c2cccnc2)nc2ccc(Br)cc12 | -7% |
| O=C(CSc1nccc(-c2cccs2)n1)Nc1cccc(Cl)c1 | 8% |
| COCCNC(=O)C1CCC(CNS(=O)(=O)c2ccc3c(c2)CC(C)N3C(=O)C2CC2)CC1 (stereo not drawn) | -1% |
| CC(=O)c1ccc([N+](=O)[O-])cc1 | -13% |
| O=C(NCC(=O)N(Cc1ccccc1)C(C(=O)NC1CCCC1)c1cccnc1)c1ccco1 (stereo not drawn) | 14% |
| Cc1cc(/C=C(\C#N)C(=O)O)c(C)n1CCC(C)C | -5% |
| O=S(=O)(c1ccccc1)N1C2CCC1CC(O)(c1cccnc1)C2 (stereo not drawn) | 5% |
| O=C(COC(=O)c1ccc2ccccc2n1)NCc1ccccc1 | -13% |
| COc1cccc(CNS(=O)(=O)c2c(C(=O)N3CCC(C)CC3)c(C)n(C)c2C)c1 | -4% |
| Cc1ccc2c(c1)N(C(=O)N1CCC(C(=O)NCc3ccco3)CC1)CC(C)O2 (stereo not drawn) | 16% |
| Cc1ccn2c(=O)cc(C)nc2c1 | -18% |

A draw from above in order of length of the SMILES, low to high:
| canonical_smiles | VDR inh |
| --- | --- |
| Cc1ccn2c(=O)cc(C)nc2c1 | -18% |
| CN(C)c1oc(-c2ccccc2)nc1C#N | -2% |
| CC(=O)c1ccc([N+](=O)[O-])cc1 | -13% |
| CCc1ccc(NC(=O)C(=S)NC2CCCCC2)cc1 | -7% |
| CCCN=C1CC(C)(C)CC(=O)/C1=C(/O)CCC | 5% |
| Cc1cc(/C=C(\C#N)C(=O)O)c(C)n1CCC(C)C | -5% |
| O=C(CSc1nccc(-c2cccs2)n1)Nc1cccc(Cl)c1 | 8% |
| O=S(=O)(c1ccccc1)N1C2CCC1CC(O)(c1cccnc1)C2 (stereo not drawn) | 5% |
| C=C(C)Cc1c(C)c(C#N)c2nc3ccccc3n2c1NCCCN(C)C | -12% |
| CC(=O)c1cc(F)c(N2CCN(C(=O)Cc3ccccc3)CC2)cc1C | -1% |
| Cc1ccc(NC(=O)CCNC(=O)c2ccc([N+](=O)[O-])cc2)cc1C | 15% |
| Cc1ccc2c(c1)N(C(=O)N1CCC(C(=O)NCc3ccco3)CC1)CC(C)O2 (stereo not drawn) | 16% |
| COc1cccc(CNS(=O)(=O)c2c(C(=O)N3CCC(C)CC3)c(C)n(C)c2C)c1 | -4% |
| COc1ccc(OC)c(/C=N/NC(=O)c2ccc(N(C)S(=O)(=O)c3ccccc3)cc2)c1 | -5% |
| COCCNC(=O)C1CCC(CNS(=O)(=O)c2ccc3c(c2)CC(C)N3C(=O)C2CC2)CC1 (stereo not drawn) | -1% |

(continued)
| canonical_smiles | VDR inh |
| --- | --- |
| COc1ccc(NC(=O)Cn2cc(C(=O)c3ccccc3)c(=O)c3cc(OC)ccc32)c(OC)c1 | -16% |
| COc1cc(OC)cc(C(=O)N[C@H](C(=O)Nc2ccc(F)cc2F)C(C)C)c1 | -20% |
| CCCn1nnnc1NCc1c(F)cccc1Cl | u |
| Cc1ccc(S(=O)(=O)N2CCOCC2)cc1NC(=O)COC(=O)c1ccc(Br)o1 | 5% |
| COCc1nnc(NC(=O)C(C)C)s1 | -2% |
| Cc1cccc(N(CC(=O)Nc2ccc(Br)cc2)S(C)(=O)=O)c1C | 10% |
| O=c1[nH]cc(S(=O)(=O)N2CCOCC2)c(=O)[nH]1 | 13% |
| Cc1cc(C)cc(C(=O)Nc2cc(C(F)(F)F)ccc2N2CCN(c3ccccc3)CC2)c1 | -19% |
| Cc1cccc(N=Nc2c(C)c(C#N)c(O)[nH]c2=O)c1 | 11% |
| O=C1NC(=S)NC1=Cc1ccccc1O | -1% |
| O=C(NCCN1CCCC1)c1ccc(CS(=O)(=O)c2c(Cl)cccc2Cl)o1 | -1% |
| O=C(Nc1ccc2nc3n(c(=O)c2c1)CCCCC3)C(=O)N1CCN(c2ccccc2F)CC1 | u |
| CCCCNC(=O)CN1CCN(c2ccc(NC(=O)c3ccc(OC)cc3)cc2C(=O)O)CC1 | 13% |
| CCOc1cc(-c2nc(-c3ccccc3)c(-c3cc([N+](=O)[O-])ccc3C)[nH]2)ccc1O | -4% |
| O=[N+]([O-])c1ccccc1SNc1ccc(Br)cn1 | -1% |
| CC1CC(c2ccccc2)=Nc2ccccc2N1 (stereo not drawn) | -19% |
| Cc1cc(OCC(=O)Nc2ccc3c(c2)OCCO3)cc(C)c1Cl | 4% |
| COc1ccc2c(c1)C[C@]1(C)c3ccccc3C(=O)N(Cc3ccccc3)[C@H]21 | -10% |
| O=C1OC(c2ccc(O)cc2)(c2ccccc2O)c2ccccc21 (stereo not drawn) | 9% |
| CCCN(CCC)c1ccc(CC(=O)NC(C)Cc2ccccc2)cc1 (stereo not drawn) | 1% |
| CCOc1ccc(C(=O)Nc2ncn[nH]2)cc1 | -14% |
| c1ccc(-c2c[nH]c3[n+]2CCCCC3)cc1 | 2% |
| CCC(CC)N1CCN(C(=O)c2cccc(Cl)c2)CC1 | 20% |
| C/C=C/COC(=O)c1[nH]c2c(c1C)C(=O)CC(c1ccc(N(C)C)cc1)C2 (stereo not drawn) | -8% |
| CC(NC(=O)c1ccc(CS(=O)(=O)c2ccc(Cl)cc2)o1)c1ccc2c(c1)OCCO2 (stereo not drawn) | 0% |
| O=C(Nc1ccc(C(F)(F)F)cc1)C1CC(=O)N(c2ccc3c(c2)OCCO3)C1 (stereo not drawn) | 16% |
| CCN(CC)S(=O)(=O)c1ccc(N2CCOCC2)c(NC(=O)c2cc3ccccc3oc2=O)c1 | -15% |
| O=C(CSc1oc(-c2ccc(F)cc2)nc1S(=O)(=O)c1ccccc1)NC1CCCCC1 | -3% |
| NNC(=S)Nc1c(F)cc(F)cc1Br | 1% |
| COc1ccc(/C=C(\C#N)c2nc(-c3cc4c(ccc5ccccc54)oc3=O)cs2)cc1O | 7% |
| COc1c2ccoc2c(OCC=C(C)C)c2oc(=O)ccc12 | -3% |
| O=C(OCc1ccccc1)N1CCCC1/C=C/CN1CCOCC1 (stereo not drawn) | 8% |
| Cc1ccc(S(=O)(=O)N2CCN(C(=O)c3c(-c4ccccc4)noc3C)CC2)cc1C | 15% |
| Cc1ccc(S(=O)(=O)CCC(=O)OC(C)C(=O)Nc2ccc(N3CCOCC3)cc2)cc1 (stereo not drawn) | -10% |
| CSc1cccc(NS(=O)(=O)c2ccc(C(C)=O)cc2)c1 | 12% |
| COc1ccccc1N1CCN(C2CCCN(C(=O)C3=NN(C)C(=O)CC3)C2)CC1 (stereo not drawn) | 5% |
| CC(C)N(NC(=O)c1cccc2ccccc12)C(C)C | 0% |
| Cc1ccc(CC(=O)N2CCN(c3ccc([N+](=O)[O-])cc3)CC2)cc1 | -9% |
| CCOC(=O)CN(Cc1ccccc1)C(C(=O)NC1CCCCC1)c1ccc(OC)cc1 (stereo not drawn) | 6% |
| Cc1ccc(Cl)cc1N1CCN(c2ncnc3c2nc2n3CCCC2)CC1 | 16% |

(cont.)
smiles,VDR inh
COc1cccc(NC(=O)NCc2ccc3c(c2)CCN3C(=O)c2ccccc2)c1,9%
CCOc1ccc(Sc2cc(C(=O)NCCc3ccccc3)c3ccccc3n2)cc1,0%
COC(=O)Cc1csc(Nc2ccccc2)n1,-12%
C[C@H](CCCC/C=C/C(=O)O)O[C@@H]1O[C@@H](C)[C@H](O)C[C@H]1O,-2%
Cc1[nH]c2ccccc2c1/C=N/NC(=O)CNC(=O)COc1ccccc1,30%[activator]
CCN1CCN(C(=O)Nc2ccc(Cc3ccc(NC(=O)N4CCN(CC)CC4)cc3)cc2)CC1,-2%
COc1ccc(C2C(C(=O)Nc3ccc(C)cc3C)=C(C)Nc3nc(SC)nn32)cc1OC (stereo not drawn),13%
NC(=O)c1ccc(NC(=O)COC(=O)/C=C/c2cn(-c3ccccc3)nc2-c2cccnc2)cc1,3%
CC1(C)CC2(CCO1)OC(=O)CC2C(=O)NCc1ccccc1 (stereo not drawn),-6%
C=CCOc1nc2c(c(=O)n(C)c(=O)n2C)n1Cc1ccccc1Cl,13%
Cc1ccc(C(=O)N/C(=C\c2cccs2)C(=O)NCCc2c[nH]c3ccccc23)cc1,0%
COc1ccc(-c2nnc(SCC(C)C)o2)cc1,-7%
CC(C)N1C(=O)C2C(C(=O)NC3CCCCC3)C3C=CC2(O3)C1C(=O)NC1CCCCC1 (stereo not drawn),8%
CC(=O)Nc1ccc(NC(=O)CSc2nnnn2-c2ccccc2F)cc1,-5%
CCN(CC)S(=O)(=O)c1cc(OC)c(Cl)cc1OC,15%
O=C(c1cnc(-c2ccccc2)s1)c1ccc(Cl)cc1Cl,-13%
O=C(CCc1ccc(S(=O)(=O)NC2CCCCC2)cc1)Nc1ccccc1,-12%
Cc1cccc(NC(=O)c2cc(-c3c(C)cc(C)cc3O)n[nH]2)c1,-16%
CN(C)c1ccc(C=NCC2(O)CCOC(C)(C)C2)cc1 (stereo not drawn),-18%
NS(=O)(=O)c1ccc(CCNC(=O)c2ccccc2OCc2ccc(F)cc2)cc1,-4%
CC(C)(CN1CCN(Cc2ccccc2)CC1)NS(=O)(=O)c1ccccc1,1%
Cc1ccc(-c2cc(C(=O)NCC3CCCO3)c3ccccc3n2)cc1C (stereo not drawn),11%
COc1ccccc1N1CCN(C(=O)c2oc3c(c2C)C(=O)CC(C)(C)C3)CC1,-21%
Nc1nonc1-n1nnc(C(=O)N/N=C/c2cccc(Cl)c2Cl)c1CN1CCCC1,10%
C=CCNS(=O)(=O)c1sccc1/C=N/O,-1%
CCOC(=O)c1cnc2c(ccc3ccccc32)c1NCCN(C)C,-8%
COc1ccc(/C=N/NC(=O)CSc2ccccn2)cc1OC,-2%
CN(C1CC(C)(C)N(O)C(C)(C)C1)S(=O)(=O)CC12CCC(CC1=O)C2(C)C (stereo not drawn),-4%
CCN1C(=NCC(C)C)N[C@@H](CCc2ccccc2)[C@H](C(=O)NCC(C)C)[C@H]1C,-2%
COc1ccc(NC(=O)Cn2c(=O)cc(C)c3c(C)nn(C)c32)cc1,3%
CCC(CC)CN1CCC(CN2C(=S)NC[C@@H]2CC(C)C)CC1,-3%
CC(C)(C)c1ccc(/C=C2\Oc3c(ccc(O)c3CN3CCN(CCO)CC3)C2=O)cc1,-16%
COc1cc(Cl)c(CN2CCCC(CO)(Cc3cccc(Cl)c3)C2)cc1OC (stereo not drawn),-11%
CN(CC(=O)NC1CCCCC1)S(=O)(=O)c1cccc2nsnc12,-5%
CCOc1cc(C2NC(=O)c3ccccc3O2)ccc1OC(C)C (stereo not drawn),-8%
CCN1CCN(CC(=O)Nc2cc(S(=O)(=O)N3CCCCC3)ccc2Cl)CC1,10%
CSc1nc2c(c(=O)[nH]1)C(c1ccc(Br)cc1)CC(=O)N2 (stereo not drawn),2%
COc1ccc(CN2CCC(c3nc4ccc(Cl)cc4[nH]3)CC2)cc1,-1%
COc1ccc(N2CCN(C(=O)Cn3nnc(-c4ccc(OC)c(OC)c4)n3)CC2)cc1,6%
CC(=O)c1sc(NCc2ccc(C)cc2)nc1C,24%
Cc1cccc2sc(N(CCCN(C)C)C(=O)c3sc4ccccc4c3Cl)nc12,-18%
Cc1cc(C)cc(NC(=O)CN(C)S(=O)(=O)c2ccc3[nH]c4c(c3c2)CCCC4)c1,18%
CCCS(=O)(=O)c1cnc(C2COc3ccccc3O2)nc1N (stereo not drawn),14%
O=c1[nH]c2cc3c(cc2cc1CN(Cc1cccnc1)Cc1nnnn1Cc1ccco1)OCCO3,-4%
O=C(O/N=C\c1ccc(N2CCCCC2)c([N+](=O)[O-])c1)c1c(F)cccc1F,5%
CN1C(=O)c2ccc(NC(=O)C3CCCCC3)cc2C1=O,2%
CCOC(=O)c1c(NC(=O)CNCC(O)CO)sc(C)c1C (stereo not drawn),8%
Cc1cccc(C(=O)Nc2nnc(SCC(=O)NCc3ccco3)s2)c1,4%
CCC1(CC)NC(=O)N(CC(=O)OCC(=O)Nc2ccc(C(F)(F)F)cc2)C1=O,-3%
C=C(C)CNC(=S)NNC(=O)CCn1c2cc(Cl)ccc2c2ccc(Cl)cc21,9%
CC(C(=O)Nc1ccc2c(c1)OCCO2)c1ccc([N+](=O)[O-])cc1 (stereo not drawn),-3%
CCc1ccccc1NC(=O)c1ccc2nc(CCc3ccccc3)oc2c1,5%
O=C(CSc1ncn[nH]1)Nc1ccc(S(=O)(=O)N2CCCC2)cc1,-1%
COc1ccc(OCc2cc(C(=O)N(C)CC3CCCCO3)no2)c(Cl)c1 (stereo not drawn),2%
COc1ccc(Cc2nnc(N/N=C/c3ccc(C)o3)[nH]c2=O)cc1,-12%
CCc1cc(=O)oc2c(C)c(OC(C)C(=O)N3CCC[C@@H]3C(=O)O)ccc12 (stereo partly drawn),-1%
CCOc1ccccc1NC(=O)c1cc2ccc3cccnc3c2[nH]1,9%
O=C(c1ccco1)N1CCN(C(=O)c2ccccc2OCc2ccccc2)CC1,-13%
O=C(O)CCCCCNCc1c(Cl)cccc1Cl,25%
Cc1ccc(CNC(=O)CSCc2nc(-c3ccc(Cl)cc3)oc2C)cc1,7%
Cc1cccc(N2CCN(C(=O)CCn3c(=O)[nH]c4ccsc4c3=O)CC2C)c1 (stereo not drawn),-24%
CNC(=O)/C(C#N)=C/c1cccc(Oc2ccccc2)c1,u
COC(=O)c1c(-c2ccccc2)noc1C,3%

Screening results (PubChem BioAssay)
